Compound activity as filed in PubChem.
HIV Env fusion: inhibitors of HIV Env-mediated cell fusion; inhibition, % at 12.3 µM; AID 651610; 1.1% of 360,000 active; HeLa-JRFL Env/CEM21 cell fusion, luciferase;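 active = mean replicate inhibition score of at least 50 and every replicate individually at or above 50; inconclusive = only one of the two criteria met; inactive = mean below 50 and not all replicates reaching 50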;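 also: 0% = plate neutral controls and 100% = maraviroc near 300 nM; one replicate is shown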
* marks the source's active call; other numbers are inactive results; ? = inconclusive; [ ] = remark or other dose. Not all compounds are listed; the hit share may differ from the screen's.

SMILES	HIV Env fusion
C[C@@H]1CN([C@H](C)CO)C(=O)c2cc(NS(=O)(=O)c3ccccc3)ccc2O[C@@H]1CN(C)S(=O)(=O)c1ccc(F)cc1	-38[16.7 µM]
CO[C@H]1CN(C)C(=O)c2ccc(NC(=O)Nc3cc(Cl)cc(Cl)c3)cc2OC[C@@H](C)NC[C@H]1C	-22[16.7 µM]
O=C(C[C@H]1C[C@H]2c3cc(NC(=O)Nc4ccccc4F)ccc3O[C@H]2[C@@H](CO)O1)NC1CCCCC1	-1[16.7 µM]
C[C@@H]1CN([C@H](C)CO)C(=O)c2cc(C#CC(C)(C)O)cnc2O[C@@H]1CN(C)Cc1cccc(F)c1	-10[16.7 µM]
Cc1ccccc1CN1CCN(C(=O)[C@H]2O[C@@H](n3cnc(C(N)=O)n3)[C@H](O)[C@@H]2O)CC1	1
COc1ccccc1-c1cccc(-c2nc(C(=O)NCc3ccncc3)cc3c2[C@@H](CCO)N([S@](=O)C(C)(C)C)C3)c1	-13[16.7 µM]
C[C@H](NC(=O)C[C@@H]1CC[C@H](NC(=O)c2cccnc2)[C@H](CO)O1)c1ccccc1	12[16.7 µM]
C[C@H](CO)N1C[C@H](C)[C@@H](CN(C)Cc2ccc(-c3ccccc3)cc2)Oc2ccc(NS(C)(=O)=O)cc2CC1=O	13[16.7 µM]
O=C(N[C@H]1CC[C@@H](CCNS(=O)(=O)Cc2ccccc2)O[C@@H]1CO)c1cnccn1	18[16.7 µM]
CC(C)NC(=O)N(C)C[C@H]1Oc2ccc(N(C)C)cc2CC(=O)N([C@@H](C)CO)C[C@@H]1C	17[16.7 µM]
COCC(=O)Nc1ccc2c(c1)C(=O)N(C)[C@H]1CC[C@@H](CC(=O)N3CCc4ccccc4C3)O[C@@H]1CO2	-9[16.7 µM]
O=C(C[C@@H]1C[C@H]2c3cc(NC(=O)c4ccc5c(c4)OCO5)ccc3O[C@H]2[C@@H](CO)O1)NCCN1CCCCC1	2[16.7 µM]
Cc1[nH]nc2c1C(c1ccc(Br)cc1)N(Cc1ccccc1)C2=O (stereo not given)	-2
CO[C@@H]1CN(C)C(=O)c2ccc(NC(=O)C3CC3)cc2OC[C@@H](C)N(CC2CCOCC2)C[C@@H]1C	-5[16.7 µM]
O=C(NCc1ccc(F)cc1)[C@H]1[C@H](CO)[C@H]2Cn3c(ccc(C4=CCCCC4)c3=O)[C@@H]1N2	-11[16.7 µM]
COc1cccc(C(=O)Nc2ccc3c(c2)OC[C@H](C)N(C)C[C@H](C)[C@H](OC)CN(C)C3=O)c1	-4[16.7 µM]
CC(C)NC(=O)Nc1ccc2c(c1)C(=O)N([C@@H](C)CO)C[C@H](C)[C@H](CN(C)S(C)(=O)=O)O2	-8[16.7 µM]
COc1ccccc1CNC(=O)C[C@H]1CC[C@@H]2[C@H](COc3ccc(NS(=O)(=O)c4ccc(C)cc4)cc3C(=O)N2C)O1	-8[16.7 µM]
CCC(=O)Nc1ccc2c(c1)C(=O)N(C)[C@H]1CC[C@H](CC(=O)NCCc3ccncc3)O[C@H]1CO2	-11[16.7 µM]
C#Cc1ccc([C@H]2C=C(C(=O)NC3CC3)O[C@@H](OCc3ccc(CO)cc3)C2)cc1	-5[16.7 µM]
COc1ccc(-c2ccccc2[C@@H]2[C@@H](CO)N(C(=O)NC3CCCC3)[C@H]2C#N)cc1	-15[16.7 µM]
CN(C)C(=O)C[C@@H]1CC[C@H]2[C@@H](COc3ccc(NC(=O)c4ccc(F)cc4)cc3C(=O)N2C)O1	3[16.7 µM]
CC=Cc1ccc2n(c1=O)C[C@H]1[C@H](CO)[C@@H](C(=O)NCc3ccc4c(c3)OCO4)[C@@H]2N1C(=O)COC (mixture of isomers)	0[16.7 µM]
C[C@H]1CN([C@@H](C)CO)C(=O)c2cc(NC(=O)CCN3CCOCC3)ccc2O[C@H]1CN(C)Cc1ccc(Cl)c(Cl)c1	4[16.7 µM]
C[C@H](CO)N1C[C@H](C)[C@@H](CN(C)C(=O)c2ccc(F)cc2)OCc2ccccc2-c2ccccc2C1=O	-9[16.7 µM]
C=CCN=C1NC(c2cccc(C(F)(F)F)c2)C(C(=O)OC)=C(C)N1C (stereo not given)	-2
CO[C@H]1CC[C@H]2CCN(C)C(=O)C[C@H](c3ccccc3)CN(C)C(=O)c3cc(C#N)ccc3OC[C@H]1O2	-19[16.7 µM]
Cc1cc2c(c(=O)o1)[C@@]1(C(=O)N(C)c3ccc([N+](=O)[O-])cc31)C1=C(CCCC1=O)O2	-42
C[C@@H]1CN([C@H](C)CO)S(=O)(=O)c2ccc(-c3cccnc3)cc2O[C@H]1CN(C)CC1CCOCC1	-13[16.7 µM]
CC(C)(C)[S@@](=O)N1Cc2cc(C(=O)NCc3ccc4c(c3)OCO4)nc(-c3cccc(-c4ccccc4)c3)c2[C@H]1CCO	7[16.7 µM]
Cc1ccccc1-c1cnc2c(c1)C(=O)N([C@H](C)CO)C[C@H](C)[C@@H](CN(C)C(=O)CC1CC1)O2	9[16.7 µM]
CO[C@@H]1CN(C)C(=O)c2ccc(NC(=O)c3ccccc3)cc2OC[C@@H](C)N(C(=O)C2CC2)C[C@@H]1C	-9[16.7 µM]
CCCC(=O)Nc1ccc2c(c1)OC[C@@H](C)N(CCC)C[C@H](C)[C@H](OC)CN(C)C2=O	22[16.7 µM]
COc1ccccc1S(=O)(=O)N[C@@H]1C=C[C@@H](CC(=O)N2CCCCC2)O[C@H]1CO	33[16.7 µM]
O=C(N[C@H]1C=C[C@@H](CC(=O)N2CCN(c3ccccc3)CC2)O[C@H]1CO)c1ccncc1	5[16.7 µM]
COc1ccc(NC(=O)N[C@H]2CC[C@H](CC(=O)NC3CCC3)O[C@@H]2CO)cc1	-13[16.7 µM]

Random excerpt: 4 compounds from above
SMILES	HIV Env fusion
CO[C@H]1CC[C@H]2CCN(C)C(=O)C[C@H](c3ccccc3)CN(C)C(=O)c3cc(C#N)ccc3OC[C@H]1O2	-19[16.7 µM]
Cc1cc2c(c(=O)o1)[C@@]1(C(=O)N(C)c3ccc([N+](=O)[O-])cc31)C1=C(CCCC1=O)O2	-42
O=C(C[C@H]1C[C@H]2c3cc(NC(=O)Nc4ccccc4F)ccc3O[C@H]2[C@@H](CO)O1)NC1CCCCC1	-1[16.7 µM]
CCCC(=O)Nc1ccc2c(c1)OC[C@@H](C)N(CCC)C[C@H](C)[C@H](OC)CN(C)C2=O	22[16.7 µM]

Remaining list, next part:
SMILES	HIV Env fusion
C[C@H]1CN(S(=O)(=O)C(C)(C)C)[C@H](CCO)/C1=C\CCO	-15
CO[C@H]1CN(C)C(=O)c2cc(C#N)ccc2OCC[C@H]2CC[C@@H](OC)[C@H](CN(C)C(=O)[C@@H]1C)O2	14[16.7 µM]
O=C(O)[C@@H]1[C@@H](CO)[C@@H]2Cn3c(ccc(-c4ccccc4)c3=O)[C@@H]2N1Cc1ccccc1F	0[16.7 µM]
C[C@H]1CN([C@@H](C)CO)C(=O)c2cc(NC(=O)CCN3CCOCC3)ccc2O[C@@H]1CN(C)Cc1ccc(Cl)c(Cl)c1	10[16.7 µM]
COc1cc(COC(C)=O)ccc1OC(C)=O	-4[16.7 µM]
CCC(=O)N1C[C@@H](C)[C@@H](OC)CN(C)C(=O)c2cc(NC(=O)c3cnccn3)ccc2OC[C@H]1C	-12[16.7 µM]
O=C(C[C@@H]1CC[C@@H]2[C@H](COC[C@@H](O)CN2Cc2ccc3c(c2)OCO3)O1)N1CCCCC1	-2[16.7 µM]
O=C(C[C@@H]1C[C@@H]2c3cc(NC(=O)c4ccc5c(c4)OCO5)ccc3O[C@@H]2[C@H](CO)O1)NCC(F)(F)F	-6[16.7 µM]
COc1ccccc1S(=O)(=O)Nc1ccc2c(c1)C(=O)N(C)C[C@H](OC)[C@@H](C)CN[C@H](C)CO2	-4[16.7 µM]
CN1C(=O)c2cc(NC(=O)c3ccc(F)c(F)c3)ccc2OC[C@H]2O[C@H](CC(=O)N[C@H]3CCN(Cc4ccccc4)C3)CC[C@@H]21	-5[16.7 µM]
CC(C)(C)[S@@](=O)N1Cc2cc(C(=O)NCCc3ccncc3)nc(-c3cccc(-c4cccnc4)c3)c2[C@H]1CCO	5[16.7 µM]
C[C@@H]1CN([C@H](C)CO)S(=O)(=O)c2ccc(C3=CCCCC3)cc2O[C@H]1CN(C)Cc1ccccc1	25[16.7 µM]

Looked up above:
HIV Env fusion, COc1ccccc1S(=O)(=O)Nc1ccc2c(c1)C(=O)N(C)C[C@H](OC)[C@@H](C)CN[C@H](C)CO2 stands at -4[16.7 µM]
HIV Env fusion, CN1C(=O)c2cc(NC(=O)c3ccc(F)c(F)c3)ccc2OC[C@H]2O[C@H](CC(=O)N[C@H]3CCN(Cc4ccccc4)C3)CC[C@@H]21 stands at -5[16.7 µM]

The list goes on:
SMILES	HIV Env fusion
CCOC(=O)N(C)C[C@H]1OCc2cn(nn2)CCCC(=O)N([C@H](C)CO)C[C@H]1C	3[16.7 µM]
CCNC(=O)Nc1ccc2c(c1)C(=O)N(C)[C@@H]1CC[C@@H](CC(=O)N[C@H](C)c3ccccc3)O[C@@H]1CO2	-6[16.7 µM]
COc1ccccc1CNC(=O)C[C@@H]1C[C@H]2c3cc(N(C)C)ccc3O[C@H]2[C@@H](CO)O1	0[16.7 µM]
C[C@@H]1CN([C@H](C)CO)C(=O)Cc2cc(NC(=O)CCCCCC(=O)Nc3ccccc3N)ccc2O[C@H]1CN(C)S(=O)(=O)c1ccc(Cl)cc1	14[16.7 µM]
O=C(CCN1CCCCC1)NCC[C@H]1CC[C@@H](NC(=O)C2CCCCC2)[C@H](CO)O1	-7[16.7 µM]
C[C@H](NC(=O)[C@@H]1[C@@H](CO)[C@@H]2Cn3c(ccc(-c4ccccc4F)c3=O)[C@H]1N2C)c1ccccc1	13[16.7 µM]
CCS(=O)(=O)Nc1ccc2c(c1)C(=O)N(C)C[C@@H](OC)[C@@H](C)CN(C(=O)c1ccc3c(c1)OCO3)[C@H](C)CO2	1[16.7 µM]
CO[C@H]1CN(C)C(=O)c2ccc(NS(=O)(=O)c3ccccc3)cc2OC[C@@H](C)N(Cc2cccnc2)C[C@H]1C	-2[16.7 µM]
Cc1ccccc1-c1ccc2c(c1)O[C@H](CN(C)C(=O)Nc1ccc(F)cc1)[C@@H](C)CN([C@H](C)CO)S2(=O)=O	?
CN1C(=O)c2cc(NS(C)(=O)=O)ccc2OC[C@@H]2O[C@H](CC(=O)NCc3ccc(-c4ccccc4)cc3)CC[C@@H]21	53[16.7 µM]
CCNC(=O)C[C@@H]1CC[C@@H]2[C@H](COC[C@H](O)CN2Cc2ccncc2)O1	-9[16.7 µM]
CCC(=O)N[C@H]1CC[C@H](CC(=O)NCc2ccccc2F)O[C@H]1CO	28[16.7 µM]
CO[C@H]1CC[C@H]2CCN(C)C(=O)[C@@H](C)N(C)C(=O)c3cccc(C#N)c3OC[C@H]1O2	-16[16.7 µM]
CN(C)C(=O)C[C@H]1C[C@@H]2c3cc(NC(=O)c4cccnc4)ccc3O[C@@H]2[C@@H](CO)O1	-46[16.7 µM]
CO[C@@H]1CN(C)C(=O)c2cc(NC(=O)c3ccc4c(c3)OCO4)ccc2OC[C@@H](C)N(CC2CC2)C[C@@H]1C	3[16.7 µM]
Cc1cccnc1N=O	-12
CO[C@H]1CN(C)C(=O)c2cc(NC(=O)Nc3cc(F)ccc3F)ccc2OC[C@@H](C)NC[C@H]1C	10[16.7 µM]
CC(C)NC(=O)Nc1ccc2c(c1)C(=O)N([C@H](C)CO)C[C@@H](C)[C@H](CN(C)C)OCCCC[C@@H](C)O2	6[16.7 µM]
CO[C@@H]1CN(C)C(=O)c2cc(NS(=O)(=O)CC(F)(F)F)ccc2OC[C@H](C)N(Cc2nccs2)C[C@H]1C	10[16.7 µM]
CC1CCCC(C)N1C(=O)c1ccccc1 (stereo not given)	1
O=S(=O)(c1cccc(F)c1)N1CCN(Cc2cccc(OCCO)c2)CC1	-10[16.7 µM]
CN(C)CCCNC(=O)[C@@H]1[C@@H](CO)[C@@H]2Cn3c(ccc(-c4cccc(F)c4)c3=O)[C@H]1N2	-19[16.7 µM]
CN1C(=O)c2cc(NC(=O)c3ccc(F)c(F)c3)ccc2OC[C@H]2O[C@H](CC(=O)N[C@@H]3CCN(Cc4ccccc4)C3)CC[C@H]21	3[16.7 µM]
Cc1noc(C)c1NC(=O)Nc1ccc2c(c1)C(=O)N([C@H](C)CO)C[C@H](C)[C@H](CN(C)Cc1ccc(C(F)(F)F)cc1)O2	-34[16.7 µM]

Shown with bars between the fields: part of the list above
Molecule | HIV Env fusion
CC(C)NC(=O)Nc1ccc2c(c1)C(=O)N([C@@H](C)CO)C[C@H](C)[C@H](CN(C)S(C)(=O)=O)O2 | -8[16.7 µM]
COc1ccccc1CNC(=O)C[C@H]1CC[C@@H]2[C@H](COc3ccc(NS(=O)(=O)c4ccc(C)cc4)cc3C(=O)N2C)O1 | -8[16.7 µM]

The list continues:
SMILES	HIV Env fusion
Cc1ccc(S(=O)(=O)N(C)C[C@H]2Oc3c(NS(=O)(=O)c4cn(C)cn4)cccc3C(=O)N([C@H](C)CO)C[C@H]2C)cc1	4[16.7 µM]
CCOC(=O)N1CCN(C(=O)C[C@H]2C[C@@]3(C(=O)OC)C(=C[C@H](COCc4ccccc4)O[C@@H]3C)N(Cc3ccc4c(c3)OCO4)C2=O)CC1	-15
C[C@H](CO)N1C[C@H](C)[C@@H](CN(C)S(=O)(=O)c2cccc(F)c2)Oc2cc(C#CCN(C)C)ccc2S1(=O)=O	3[16.7 µM]
Cc1nn(C)cc1NC(=O)C[C@H]1CC[C@@H]2[C@@H](COc3ccc(NC(=O)c4cccc(F)c4)cc3C(=O)N2C)O1	5[16.7 µM]
COc1cccc(S(=O)(=O)N2CCC3(CC2)CN[C@H](CO)c2c3c3ccc(OC)cc3n2C)c1	35[16.7 µM]
CO[C@@H]1CN(C)C(=O)c2cc(NS(=O)(=O)Cc3ccccc3)ccc2OC[C@@H](C)N(Cc2nccs2)C[C@H]1C	-16[16.7 µM]
COC(=O)C1=C(C)N(Cc2ccc(C(F)(F)F)cc2)C(=NCc2ccccc2C(F)(F)F)NC1c1ccc(C(F)(F)F)cc1 (stereo not given)	4
CC(C)NC(=O)Nc1ccc2c(c1)CC(=O)N([C@H](C)CO)C[C@@H](C)[C@H](CN(C)S(=O)(=O)c1ccccc1)O2	3[16.7 µM]
COc1ccc(-c2cccc3[nH]c4c(c23)CCN2C(=O)[C@H]3[C@H](C)ON(C)[C@H]3C[C@@H]42)cc1	-7
